# NS1 function inh: qHTS Assay for Inhibitors of Influenza NS1 Protein Function | S. cerevisiae slowed by influenza A NS1, growth recovery by OD600 | Potency, µM (series often up to 46.1 µM), without a hit: at the top dose activity, positive = more growth | 270,000 tested, 0.4% active | AID 2326, 2010; note: actives are rising curves; nearly all actives have a fitted effect of over 50% in size
#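 Growth recovery, yeast-based: influenza A NS1 expressed in S. cerevisiae causes slow growth, and suppressors are detected by OD600. The parent strain without NS1 is used as positive control.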
# SARS PLP yeast: qHTS of Yeast-based Assay for SARS-CoV PLP; S. cerevisiae expressing SARS-CoV PLpro, growth rescue; control for the full effect not named in the record; Potency, µM (highest dose often 32.9 µM), inactives show top-dose activity, positive = growth rescue; 330,000 tested, 0.19% active; note: 0% is about no effect; nearly all actives have a fitted effect of over 55% in size; growth read by luminescence after 48 h
# Cruzain noTriton: qHTS Assay for Promiscuous and Specific Inhibitors of Cruzain (without detergent); Cruzipain (Trypanosoma cruzi), P25779; purified cruzain, Z-FR-AMC fluorescence, no detergent; Potency, µM, for inactives: max response, negative = inhibition, usual class: inhibitors; 200,000 tested, 2.3% active; AID 1476, 2009; active = well fitted curve in the direction sought with a large enough effect; inconclusive = small, poorly fitted or top-dose-only effect, or another doubt; inactive = no such curve, though single readings can be large; an effect the other way counts as inactive or inconclusive;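 note: plate controls were enzyme without inhibitor for no effect and buffer without enzyme for full effect; nearly all actives have a fitted effect of over 40% in size; top concentration of the series not given in the record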
# Target sequence (P25779 123-467 limits assumed): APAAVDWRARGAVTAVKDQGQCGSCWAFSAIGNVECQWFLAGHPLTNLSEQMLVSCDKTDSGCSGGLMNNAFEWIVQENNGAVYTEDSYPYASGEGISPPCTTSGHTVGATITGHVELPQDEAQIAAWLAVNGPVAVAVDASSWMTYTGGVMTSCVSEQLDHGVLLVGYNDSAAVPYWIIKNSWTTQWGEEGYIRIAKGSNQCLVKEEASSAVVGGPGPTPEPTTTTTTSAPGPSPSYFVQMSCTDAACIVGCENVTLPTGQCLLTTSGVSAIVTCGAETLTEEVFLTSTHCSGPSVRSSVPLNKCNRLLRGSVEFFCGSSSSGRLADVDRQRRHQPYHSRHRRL
#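 Purified cruzain at 1.5 nM, pre-incubated 15 min with compound at room temperature in 100 mM sodium acetate pH 5.5, 5 mM DTT, 0.00005% Triton X-100. Reaction started with 2 uM Z-FR-AMC; AMC fluorescence increase over 60 s gives rate.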
# Marburg entry inh: qHTS for inhibitors of binding or entry into cells for Marburg Virus; 300,000 tested, 1.8% active; Potency, µM (highest dose often 37.8 µM), without a hit: at the top dose activity change, negative = inhibition, usual class: inhibitors; AID 540276, 2011; Marburg virus pseudotyped entry inhibition, cell reporter; control for the full effect not named in the record; about a third of the inactives were read at about 46 µM; active = well fitted inhibition curve with a large enough effect; inconclusive = small, poorly fitted or top-dose-only effect, or effect the other way; inactive = flat fitted curve, though single readings scatter; tested in HEK293 cells; about a fifth of its hits are not listed in these tables; note: % is set by controls: 0 for no effect and ±100 for the full control effect; luciferase read-out
# Cruzain inh Det: qHTS Assay for Promiscuous and Specific Inhibitors of Cruzain (with detergent). Cruzipain (Trypanosoma cruzi), P25779. purified cruzain, Z-FR-AMC fluorescence, 0.01% Triton. Potency, µM, for inactives: max response, negative = inhibition, actives largely listed as inhibitors. 200,000 tested, 0.43% active; active = well fitted curve in the direction sought with a large enough effect; inconclusive = small, poorly fitted or top-dose-only effect, or another doubt; inactive = no such curve, though single readings can be large; an effect the other way counts as inactive or inconclusive;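 note: plate controls were neutral wells for no effect and buffer without enzyme for full effect; nearly all actives have a fitted effect of over 40% in size; top concentration of the series not given in the record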
#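 15 min RT preincubation of 1.5 nM cruzain with compound, then 2 uM Z-FR-AMC added; kinetic AMC fluorescence, 60 s delta. Triton X-100 0.01%, pH 5.5.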
# 2A StopGo: High Throughput Screening for Foot and Mouth Disease Virus Antivirals; human cells with a luciferase reporter of 2A StopGo recoding; control for the full effect not named in the record; Potency, µM (top dose mostly 57.9 µM), for the others: at the highest dose signal change, negative = less light; 410,000 tested, 1.2% active; AID 1159524, 2015; active = well fitted falling curve with a large enough effect; inconclusive = small, poorly fitted or top-dose-only effect; inactive = no such curve, though single readings can be large or run the other way; tested in HEK293T cells; note: % is set by controls: 0 for no effect and ±100 for the full control effect; nearly all actives have a fitted effect of over 45% in size; luciferase light after 4 h
# RE007 growth inh: qHTS Assay for Inhibitors of the HIV-1 protein Vpr. S. pombe RE007 Vpr strain, BacTiter-Glo ATP luminescence, 24 h; control for the full effect not named in the record. Potency, µM (top dose mostly 92.2 µM), for inactives: at the highest dose activity change, negative = less growth. 360,000 tested, 0.21% active; active = well fitted falling curve with a large enough effect; inconclusive = small, poorly fitted or top-dose-only effect; inactive = no such curve, though single readings can be large or run the other way;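 note: % is set by controls: 0 for no effect and ±100 for the full control effect; nearly all actives have a fitted effect of over 50% in size; the assay follows cell death caused by Vpr and the record does not say whether a fall means rescue or toxicity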
#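 Fission yeast strain RE007, carrying one chromosomally integrated HIV-1 vpr copy, was seeded at OD 0.01 in PMG+AL medium with 23 nL pinned compound. After 24 h at 30 °C and 99% humidity, viability was read by BacTiter-Glo luminescence.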
# LASV entry inh: qHTS for Inhibitors of binding or entry into cells for Lassa Virus | Lassa virus pseudotype entry inhibition, cell reporter; control for the full effect not named in the record | 300,000 tested, 1.2% active | AID 540256, 2011 | Potency, µM (series often up to 37.9 µM), inactives show top-dose activity change, negative = inhibition, usual class: inhibitors; active means well fitted inhibition curve with a large enough effect; inconclusive means small, poorly fitted or top-dose-only effect, or effect the other way; inactive means flat fitted curve, though single readings scatter; tested in HEK293 cells; note: % is set by controls: 0 for no effect and ±100 for the full control effect; nearly all actives have a fitted effect of over 50% in size; luciferase read-out
# Active calls of the source: *; ? = inconclusive; / = no result given; [ ] = another dose, or the depositor's remark. Unless noted, calls come from the whole dose curve; as a rule, active means well fitted rising curve with a large enough effect; inconclusive means small, poorly fitted or top-dose-only effect; inactive means no such curve, though single readings can be large or run the other way. Potency is the fitted concentration of half-maximal effect.
entry	Structure	NS1 function inh	SARS PLP yeast	Cruzain noTriton	Marburg entry inh	Cruzain inh Det	2A StopGo	RE007 growth inh	LASV entry inh
1	O=C(O)CCCC(=O)Nc1ccc(Oc2ncnc3cc(Cl)ccc23)nc1	-1.6%	1.5%	/	/	/	-13.3%	-3.6%	/
2	CCNC(=S)NNc1ccccc1	-39.6%	-2.8%	/	6.3%[46.1 µM]	/	0.6%	?	17.7%
3	CC(NC(=O)c1ccco1)c1nc(-c2ccc(Cl)cc2)no1 (stereo not given)	-11.0%	-1.3%	/	-2.8%[46.1 µM]	/	-12.9%	-16.1%	2.4%
4	Cc1ccc(CN2CCN(Cc3cccn3-c3nccs3)CC2CCO)cc1 (stereo not given)	-0.8%	-0.9%	/	?	/	-18.5%	3.5%	-12.5%[46.1 µM]
5	COc1ccc(NC(=O)c2c(-c3ccc(C)cc3)nnc3ccccc23)cc1OC	/	/	-8.0%	/	-1.2%	32.9%[activator]	/	-8.8%[46.1 µM]
6	CCOc1ccc(S(=O)(=O)c2c[nH]c3ccc(C)cc3c2=O)cc1	0.0%	-1.4%	/	/	/	-25.4%	10.3%	/
7	Cc1ccc(Nc2ccc(C(=O)NC3CCCCC3)cn2)cc1	0.0%	-0.5%	/	1.2%	/	44.1%[activator]	0.9%	/
8	O=C(NCc1ccccc1)c1ccc(Br)cc1	0.6%	4.0%	/	?	/	28.5%	17.6%	-17.0%
9	Cc1ccccc1NC(=O)CN1CCN(Cc2ccccc2)CC1	17.1%	2.9%	/	-3.4%	/	-0.9%	8.0%	-5.2%
10	CC1(C)C2CCC1(C)C(OC(=O)CNc1ccccc1)C2 (stereo not given)	-6.7%	-0.3%	/	-0.4%	/	1.0%	11.6%	/
11	CCOC(=O)c1c(CN(C)C)n(C)c2c(O)c(N=NC(N)=O)c3ccc(Br)cc3c12	0.0%	-0.3%	/	?	/	-20.6%	-5.5%	-5.2%[46.1 µM]
12	CC1C(=O)N(C)C(=O)c2nc[nH]c21 (stereo not given)	0.0%	/	-5.5%	?	-6.2%	/	/	15.3%
13	Cc1ccccc1NS(=O)(=O)c1nnc(NC(=O)CC(C)C)s1	9.0%	1.4%	/	/	/	-19.4%	-10.2%	/
14	CCOC(=O)c1cnn(-c2cc(C)nc3c(-c4ccc(Cl)cc4)c(C)nn23)c1N	10.6%	4.5%	-5.1%	/	3.2%	/	/	/
15	COc1ccc(CN(CCC(c2ccccc2)C2CCOC(C)(C)C2)C(C)=O)cc1 (stereo not given)	-17.7%	1.1%	?	?	-4.8%	?	8.7%	?
16	Cc1cc(C)nc(NS(=O)(=O)c2ccc(N/C=C/C(=O)c3ccc(Cl)c(Cl)c3)cc2)n1	25.3%	4.9%	-16.9%	22.9%	-6.6%	8.2%	16.1%	11.4%
17	Cc1nn(-c2ccc([N+](=O)[O-])cc2)c2c1C(c1cccc(Br)c1)N1C(=N2)C(=O)Nc2ccccc21 (stereo not given)	20.6%	9.8%	3.98µM*	?	-2.9%	?	4.7%	?
18	O=C(CSc1nccn1Cc1ccccc1)NCc1ccc(F)cc1	/	/	12.9%	/	2.8%	0.0%	/	3.0%[46.1 µM]
19	CCC(=O)N1CCc2cc(S(=O)(=O)NC(CC(C)C)C(=O)NCCc3cccc(C)c3)ccc21 (stereo not given)	/	/	-3.7%	?	3.4%	-1.7%	/	?
20	CCOC(=O)C1CSC2(CCC(c3ccccc3)CC2)N1 (stereo not given)	/	5.2%	/	-9.3%[46.1 µM]	/	-1.4%	-2.6%	5.7%[46.1 µM]
21	Cc1cccc(NC(=O)C2CCN(S(=O)(=O)c3c(C)noc3/C=C/c3ccco3)CC2)c1	/	/	2.4%	2.1%[46.1 µM]	-24.5%	-27.4%	/	-2.6%[46.1 µM]
22	Fc1ccccc1N=C1NN=C(c2ccccc2)CS1	/	0.1%	/	11.2µM*	/	34.3%[activator]	-17.1%	?
23	O=C(NCc1cccs1)C1CCCN1C(=O)Nc1ccc(F)cc1 (stereo not given)	10.0%	0.5%	/	-16.8%[46.1 µM]	/	-21.0%	14.0%	-4.3%
24	C=CCN1C(c2ccc(Br)cc2)=CS/C1=C(/C#N)c1nnc(N2CCOCC2)n1-c1ccccc1	-18.5%	9.8%	?	?	-16.4%	?	-7.7%	?
25	COc1ccc(C)cc1NC(=O)C(=O)NCCc1sc(-c2ccc(Cl)cc2)nc1C	/	/	-7.6%	/	-0.3%	-2.6%	/	8.7%[46.1 µM]
26	Cc1cccc(C(=O)Nc2ccc(C(=O)N/N=C/c3ccc(C)o3)cc2)c1	15.1%	-6.9%	/	?	/	-8.7%	1.1%	-21.4%
27	Cc1[nH]n2cnnc2c(=O)c1Br	?	-1.0%	/	/	/	7.3%	-6.2%	/
28	O=c1[nH][nH]c(=O)c2nc(Nc3ccccc3)ncc12	/	/	/	5.2%[46.1 µM]	/	-12.1%	11.1%	4.4%[46.1 µM]
29	COC(=O)c1c(-c2ccncc2)csc1NC(=O)c1ccoc1C	-6.7%	-5.3%	-2.8%	?	-1.2%	0.0%	-1.9%	13.0%
30	CC(=O)c1ccc(NC(=O)CSc2nccn2Cc2ccc3c(c2)OCO3)cc1	/	/	-5.7%	/	-6.8%	?	/	4.4%[46.1 µM]
31	C=CCn1c(COc2ccccc2)nnc1SCC(=O)Nc1ccc2c(c1)OCCO2	-38.8%	-4.9%	7.2%	-1.8%[46.1 µM]	5.0%	0.0%	10.4%	-1.7%
32	O=S(=O)(NC1CCCCC1)c1ccc(Br)s1	-28.6%	-8.5%	/	24.5%[46.1 µM]	/	49.5%[activator]	10.1%	11.2%[46.1 µM]
33	Cc1cccc(C)c1OCC(=O)N/N=C/c1ccc2c(c1)OCO2	-6.5%	3.9%	-3.3%	-14.5%	3.2%	0.3%	4.0%	?
34	O=c1c(-c2ccccc2)cnc2n1CCS2	5.6%	0.9%	/	9.5%[46.1 µM]	/	10.8%	2.4%	8.8%[46.1 µM]
35	O=C(NCCCn1cccn1)c1cc(COc2ccc(F)cc2Cl)on1	3.3%	-2.1%	/	/	/	31.0%[activator]	0.9%	/
36	Cc1cccc(N2CCN(C(=O)CN3CCSc4ccccc43)CC2C)c1 (stereo not given)	/	/	-0.3%	/	-7.2%	0.0%	/	-21.3%[46.1 µM]
37	Cc1cn(C2CCCCC2)c(=O)n(-c2ccccc2)c1=O	/	/	/	8.1%	/	-12.8%	0.9%	-3.0%
38	COCC(C)n1c(COc2ccccc2F)nnc1SCc1c(C)noc1C (stereo not given)	-9.3%	5.0%	15.7%	-18.9%	3.3%	3.9%	-2.9%	-14.0%
39	CC1CCC(C(C)C)C(OC(=O)C[n+]2cc(-c3ccc(Cl)cc3)n3c2CCC3)C1 (stereo not given)	-30.7%	1.9%	/	/	/	0.0%	9.9%	/
40	COc1ccc(NC(=O)/C=C/c2cccc(Br)c2)cn1	-66.7%	-38.7%	/	?	/	-26.3%	?	?

# Single records (already shown).
# `Cc1cn(C2CCCCC2)c(=O)n(-c2ccccc2)c1=O` is listed as NS1 function inh: /; SARS PLP yeast: /; Cruzain noTriton: /; Marburg entry inh: 8.1%; Cruzain inh Det: /; 2A StopGo: -12.8%; RE007 growth inh: 0.9%; LASV entry inh: -3.0%
# `Cc1cccc(N2CCN(C(=O)CN3CCSc4ccccc43)CC2C)c1` (stereo not given) is listed as NS1 function inh: /; SARS PLP yeast: /; Cruzain noTriton: -0.3%; Marburg entry inh: /; Cruzain inh Det: -7.2%; 2A StopGo: 0.0%; RE007 growth inh: /; LASV entry inh: -21.3%[46.1 µM]

# (listing goes on)
entry	Structure	NS1 function inh	SARS PLP yeast	Cruzain noTriton	Marburg entry inh	Cruzain inh Det	2A StopGo	RE007 growth inh	LASV entry inh
41	O=C(c1ccc([N+](=O)[O-])o1)N1CCOCC1	/	-2.3%	/	0.4%[46.1 µM]	/	-2.3%	-19.6%	-5.3%
42	CCn1c(CNC(=O)c2ccccc2F)nnc1SCC(=O)Nc1nncs1	11.7%	4.7%	/	-27.7%[46.1 µM]	/	-13.3%	10.7%	0.2%
43	CC1CC(N(C(=O)c2ccco2)c2ccccc2)c2ccccc2N1 (stereo not given)	-13.8%	-2.1%	0.8%	?	-2.8%	0.0%	0.9%	-14.7%
44	CN(C)C(=O)c1cc2cc(Br)ccc2s1	/	-0.2%	/	3.6%[46.1 µM]	/	21.2%	-0.7%	-15.2%[46.1 µM]
45	Cc1ccc(-n2c(=O)c3c(c4cc(C)ccc4n3C)n(CC(=O)Nc3c(C)cccc3C)c2=O)cc1	/	/	4.5%	/	-1.8%	0.8%	/	11.2%[46.1 µM]
46	CN(C)c1ccc(/C=N/NC(=O)CN(c2cccc(Cl)c2)S(C)(=O)=O)cc1Br	6.0%	4.9%	-2.7%	?	-2.8%	-18.9%	0.5%	?
47	CC(C)c1nc2sc3c(SCC(N)=O)ncnc3c2c2c1CCC2	-6.6%	6.2%	/	0.8%[46.1 µM]	/	-1.4%	8.8%	3.1%
48	CC(=O)OCn1ncc(N2CCOCC2)c(Br)c1=O	-1.7%	0.0%	/	-14.8%[46.1 µM]	/	-10.4%	16.0%	-15.5%[46.1 µM]
49	CCCS(=O)(=O)N1CCN(Cc2ccc([N+](=O)[O-])cc2)CC1	-9.0%	?	2.8%	?	2.3%	-14.3%	12.1%	1.4%
50	COc1ccc2nc3sc(C(=O)Nc4ccccc4F)cc3cc2c1	/	/	-4.6%	-2.2%[46.1 µM]	-1.9%	48.6%[activator]	/	19.6%[46.1 µM]
51	NC(=O)CC(NC(=O)c1ccccc1)c1ccc(N2CCc3ccccc3C2)c([N+](=O)[O-])c1 (stereo not given)	19.9%	-3.5%	/	/	/	-18.4%	4.8%	/
52	OCCC1CN(Cc2cc(F)ccc2F)CCN1CCCc1ccccc1 (stereo not given)	-3.7%	4.8%	/	/	/	-15.5%	3.4%	/

# Assay outcomes: PubChem BioAssay, National Center for Advancing Translational Sciences (NCATS)
